# Screens (PubChem BioAssay)
# NPR1 antag: antagonists of human natriuretic peptide receptor Npr1 | P16066 | HEK293 hNpr1 GloSensor cGMP, ANP-stimulated luminescence | Potency, µM (doses to about 46.3 µM), inactives show top-dose activity change, negative = inhibition, actives largely listed as inhibitors | 76,000 compounds, 1.6% hits; active = well fitted inhibition curve with a large enough effect; inconclusive = small, poorly fitted or top-dose-only effect; inactive = no such curve, though single readings can be large or run the other way;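 note: nearly all actives have a fitted effect of over 60% in size; nearly all hits also lower the signal before the agonist is added; a reference antagonist and vehicle were the controls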
# Target sequence (P16066 whole entry, looked up): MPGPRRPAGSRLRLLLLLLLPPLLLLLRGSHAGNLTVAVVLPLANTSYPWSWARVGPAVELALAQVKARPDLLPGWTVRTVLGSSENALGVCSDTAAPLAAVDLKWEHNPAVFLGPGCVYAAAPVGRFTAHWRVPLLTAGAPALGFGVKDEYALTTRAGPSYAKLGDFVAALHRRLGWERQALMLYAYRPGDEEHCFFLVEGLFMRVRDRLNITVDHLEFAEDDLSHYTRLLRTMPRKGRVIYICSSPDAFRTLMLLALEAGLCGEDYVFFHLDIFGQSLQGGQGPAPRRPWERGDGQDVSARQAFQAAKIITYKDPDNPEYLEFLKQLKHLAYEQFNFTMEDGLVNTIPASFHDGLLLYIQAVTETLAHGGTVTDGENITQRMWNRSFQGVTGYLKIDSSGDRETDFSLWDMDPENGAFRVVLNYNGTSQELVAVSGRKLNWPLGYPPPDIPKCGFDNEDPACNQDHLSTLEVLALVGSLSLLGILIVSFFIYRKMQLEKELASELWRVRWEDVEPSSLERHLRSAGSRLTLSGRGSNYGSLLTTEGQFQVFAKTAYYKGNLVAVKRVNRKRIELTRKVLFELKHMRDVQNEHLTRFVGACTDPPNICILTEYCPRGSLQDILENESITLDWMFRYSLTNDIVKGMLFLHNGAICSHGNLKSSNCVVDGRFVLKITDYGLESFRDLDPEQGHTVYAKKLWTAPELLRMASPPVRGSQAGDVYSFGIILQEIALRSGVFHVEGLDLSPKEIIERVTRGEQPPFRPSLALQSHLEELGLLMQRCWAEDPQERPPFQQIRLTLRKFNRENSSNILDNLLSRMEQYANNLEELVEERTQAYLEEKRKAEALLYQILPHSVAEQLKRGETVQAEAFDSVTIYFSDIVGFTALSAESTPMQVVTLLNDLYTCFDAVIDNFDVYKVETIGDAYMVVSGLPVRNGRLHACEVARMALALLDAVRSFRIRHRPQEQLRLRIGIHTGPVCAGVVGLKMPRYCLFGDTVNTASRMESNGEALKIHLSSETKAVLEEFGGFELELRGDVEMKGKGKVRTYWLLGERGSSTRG
#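 HEK293 cells stably expressing human Npr1 and cGMP GloSensor pGS-40F, loaded 2 h with 2% GloSensor reagent, given compound 30 min at room temperature. Luminescence read before and 20 min after 0.1 nM hNppA.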
# * marks the source's active call; other numbers are inactive results; ? = inconclusive; [ ] = dose if it differs, or a comment. % is set by controls: 0 for no effect and ±100 for the full control effect; potency is the fitted concentration of half-maximal effect. This is a subset; count on the stated rates, not on these rows.
SMILES,NPR1 antag
C=CCN(C)C[C@H]1CN2CC[C@H]1C[C@@H]2CNC(=O)Nc1cccc(C#N)c1,-2%[70.6 µM]
O[C@H]1[C@H](NCC2CCCC2)[C@@H](c2ccccc2)C[C@H]1O,-12%[70.6 µM]
COc1ccc(-c2cc([C@H]3CN4CC[C@H]3C[C@@H]4CO)n(C)n2)cc1,3%[70.6 µM]
O=C(NC1CC1)[C@H]1CN2CCC1C[C@@H]2Cn1cc(CCO)nn1 (some centres not stated),-2%[70.6 µM]
N#Cc1cccc(NC(=O)NC[C@H]2C[C@@H]3CCN2C[C@@H]3CN2CCOCC2)c1,1%[70.6 µM]
COCC(=O)NC[C@H]1C[C@@H]2CCN1C[C@@H]2c1cc(-c2ccc3ccccc3c2)nn1C,-1%[70.6 µM]
O=C(NC1CC1)[C@H]1CN2CCC1C[C@@H]2Cn1cc(CSc2ccccc2)nn1 (some centres not stated),-1%[70.6 µM]
O=C([C@H]1CN2CC[C@H]1C[C@@H]2Cn1cc(CO)nn1)N1CCOCC1,-1%[70.6 µM]
Cc1nc(-c2ccccc2)cc([C@H]2CN3CC[C@H]2C[C@@H]3CNC(=O)N2CCOCC2)n1,5%[70.6 µM]
COc1ccccc1N1CCN(C(=O)[C@H]2CN3CCC2C[C@@H]3Cn2cc(C(C)(C)O)nn2)CC1 (some centres not stated),-5%
COc1ccc(-c2cc([C@H]3CN4CC[C@H]3C[C@@H]4CNS(=O)(=O)c3ccccc3)n(C)n2)cc1,-1%
O=C(NCc1ccco1)[C@H]1CN2CC[C@H]1C[C@@H]2Cn1cc(CCO)nn1,1%[70.6 µM]
O=C(c1ccncc1)N1C[C@@H]2C[C@H](C1)c1ccc(C3CCCCC3)c(=O)n1C2,1%[70.6 µM]
COCCOC1CCN(C(=O)c2nn(C)c3ccccc23)CC1,13%
C=CCN1CCC2(CCC1=O)CN(C(=O)Cc1cccnc1)CCN2C (configuration not stated),2%
CN1CCN(C(=O)Cc2c[nH]c3ncc(-c4ccoc4)cc23)CC1,10%[70.6 µM]
COc1cc2c(cc1OCC1CC1)NC(=O)C21CCN(C(=O)c2ccnn2C)CC1,3%[70.6 µM]
CCOCCCNC(=O)N1[C@H]2CC[C@@H]1c1cnc(-c3ccc(F)cc3)nc1C2,?
O=C(Nc1ccc(=O)n2c1[C@@H]1C[C@@H](CN(S(=O)(=O)c3ccccc3)C1)C2)c1cncnc1,-19%
COc1ccccc1-c1cc([C@H]2CN3CC[C@H]2C[C@@H]3CNC(=O)CCC(=O)O)nc(C)n1,-1%
Cn1c(CN2CCC(C#N)(c3ccccc3)CC2)nnc1C1CC(N)C1 (configuration not stated),-21%
OC[C@H]1C[C@@H](NC2CCOCC2)[C@H](O)[C@@H]1O,1%[70.6 µM]
O=C1NCCCCCN[C@H]2CCC[C@@H]12,0%
COc1ccccc1-c1cc([C@H]2CN3CC[C@H]2C[C@@H]3CNS(=O)(=O)c2ccccc2)n(C)n1,1%
CC[C@H]1CN2CC[C@H]1C[C@@H]2CNC(=S)Nc1ccc(N(C)C)cc1,5%[70.6 µM]

# Two records picked at random from the list so far:
SMILES,NPR1 antag
O=C(NC1CC1)[C@H]1CN2CCC1C[C@@H]2Cn1cc(CSc2ccccc2)nn1 (some centres not stated),-1%[70.6 µM]
O=C(Nc1ccc(=O)n2c1[C@@H]1C[C@@H](CN(S(=O)(=O)c3ccccc3)C1)C2)c1cncnc1,-19%

# Carrying on.
SMILES,NPR1 antag
COc1ccc2c(c1)C1(CCN(C(=O)Nc3ccc4c(c3)OCO4)C1)C(=O)N2 (configuration not stated),-13%
COc1cc2c(cc1OCc1ccccc1)NC(=O)C21CCN(c2nc(C)cnc2C)CC1,-23%
CC(=O)c1cn(C[C@H]2CC3CCN2C[C@@H]3C(=O)NC(C)C)nn1 (some centres not stated),0%[70.6 µM]
COc1cncc(CN2CCC3(CC2)C(=O)Nc2cc(Oc4ccccc4)c(OC)cc23)c1,-26%
COCC1CN(C)CC12CCNCC2 (configuration not stated),-12%
COCc1cn(C[C@H]2C[C@@H]3CCN2C[C@@H]3C(=O)N2CCOCC2)nn1,3%[70.6 µM]
Cc1ccc(C)c(S(=O)(=O)N2[C@H]3CC[C@@H]2c2cnc(-c4ccc(F)cc4)nc2C3)c1,?
C#C[C@H]1CN2CC[C@H]1C[C@@H]2CNS(=O)(=O)c1ccc(NC(C)=O)cc1,-3%[70.6 µM]
CN(C)C(=O)[C@H]1CN2CCC1C[C@@H]2Cn1cc(-c2cccc(N)c2)nn1 (some centres not stated),-4%[70.6 µM]
COc1ccc(-c2cc([C@H]3CN4CC[C@H]3C[C@@H]4CNS(=O)(=O)c3cccs3)n(C)n2)cc1OC,0%
O=C1NCCCCCCN(Cc2ccncc2F)[C@H]2CCC[C@@H]12,-1%
Cc1ncc2c(n1)C[C@@H]1CC[C@H]2N1,8%
CCOCCCNC(=O)N1[C@H]2CC[C@@H]1c1cnc(-c3ccccc3)nc1C2,-9%
CC(C)(CC(=O)O)CC(=O)N1C[C@@H]2C[C@H](C1)c1ccc(-c3cccc(C#N)c3)c(=O)n1C2,1%[70.6 µM]
Cc1nc(-c2ccc(N(C)C)cc2)cc([C@H]2CN3CC[C@H]2C[C@@H]3CNCc2cccc(C#N)c2)n1,-21%
O=S(=O)(NC[C@H]1C[C@@H]2CCN1C[C@@H]2CN1CCOCC1)c1cccs1,2%[70.6 µM]
CSCC(=O)Nc1ccc(=O)n2c1[C@@H]1C[C@@H](CN(C(=O)NC3CCCCC3)C1)C2,2%[70.6 µM]
O=C(NCCc1ccccc1)N1[C@H]2CC[C@@H]1c1cncnc1C2,10%
COc1ccc(NC(=O)OC[C@H]2C[C@@H]3CCN2C[C@@H]3c2cc(-c3ccc(N(C)C)cc3)nc(C)n2)cc1,-14%
CCCCc1cn(C[C@H]2CC3CCN2C[C@@H]3C(=O)NCCOC)nn1 (some centres not stated),4%[70.6 µM]
C=CCN(C)C[C@H]1CN2CC[C@H]1C[C@@H]2CNC(=O)Nc1ccsc1,4%[70.6 µM]
O=C(Cc1ccc(F)cc1)N1CCN(C2CCN(CCc3ccccc3)C2=O)CC1 (configuration not stated),-5%
CN(CC1CCCCC1)C1CCc2ccccc2C1 (configuration not stated),13%[70.6 µM]
Cc1conc1CN1CC2(C1)NC(=O)c1ccccc1O2,15%[70.6 µM]
CCn1c(CO)nnc1C1CC(NC(=O)c2cnn(Cc3ccccc3)c2)C1 (configuration not stated),5%
SMILES,NPR1 antag
COCC(=O)NC[C@H]1C[C@@H]2CCN1C[C@@H]2c1cc(-c2ccc(OC)cc2)nn1C,1%[70.6 µM]
Cc1noc(C)c1S(=O)(=O)N1[C@H]2CC[C@@H]1c1cnc(-c3ccccc3)nc1C2,?
CC(=O)Nc1ccc(-c2ccc(=O)n3c2[C@@H]2C[C@@H](CN(C(=O)CN(C)C)C2)C3)cc1,-4%[70.6 µM]
O=C(C1CCCCC1)N1[C@H]2CC[C@@H]1c1cnc(-c3ccccc3)nc1C2,6%
O=C1CO[C@H]2CN(Cc3ccco3)C[C@H]2N1Cc1cccnc1,4%[70.6 µM]
COc1ccc(NC(=O)NC[C@H]2C[C@@H]3CCN2C[C@@H]3CN2CCN(c3ncccn3)CC2)cc1,2%
COc1ccccc1CNC(=O)CN1CCCC1=O,0%
Cc1nc(-c2ccc(C(F)(F)F)cc2)cc([C@H]2CN3CC[C@H]2C[C@@H]3CNC(=O)CCCC(=O)O)n1,1%
COCC1CN(C)CC12CCN(Cc1ccncc1F)CC2 (configuration not stated),-10%
COc1ccc(-c2cn(C[C@H]3C[C@@H]4CCN3C[C@@H]4C(=O)N3CCOCC3)nn2)cc1,5%[70.6 µM]
CCC(CC)C(=O)NC[C@H]1C[C@@H]2CCN1C[C@@H]2c1cc(-c2ccc(OC)c(OC)c2)nn1C,1%
C=CCN(C)C(=O)[C@H]1CN2CCC1C[C@@H]2Cn1cc(-c2ccc(C(C)(C)C)cc2)nn1 (some centres not stated),-2%[70.6 µM]
COC1CN(c2cccc(F)c2)C12CCNCC2 (configuration not stated),3%
COc1ccc(-c2ccc3n(c2=O)C[C@H]2C[C@@H]3CN(S(C)(=O)=O)C2)cc1,-6%[70.6 µM]
CN(CCc1ccccn1)C[C@H]1CN2CC[C@H]1C[C@@H]2CNC(=O)c1ccc2c(c1)OCO2,4%
O=C(NC[C@H]1C[C@@H]2CCN1C[C@@H]2CN1CCC(Cc2ccccc2)CC1)Nc1ccsc1,-2%
Cn1nc(-c2ccc(F)cc2)cc1[C@H]1CN2CC[C@H]1C[C@@H]2CNC(=O)c1ccc2c(c1)OCO2,-8%
Cn1nc(-c2ccc(F)cc2)cc1[C@H]1CN2CC[C@H]1C[C@@H]2CNC(=O)c1cccs1,-19%[70.6 µM]
CC(C)NC(=O)NC[C@H]1C[C@@H]2CCN1C[C@@H]2CN1CCC(Cc2ccccc2)CC1,1%[70.6 µM]
O=C(NC[C@H]1C[C@@H]2CCN1C[C@@H]2CN1CCCC1)c1ccco1,4%[70.6 µM]
CN1CCNc2cc(NCc3ccccc3)ncc2C1,-2%[70.6 µM]
Cc1ncc2c(n1)C[C@@H]1CC[C@H]2N1C(=O)Cc1cccc(F)c1,12%
COc1ccccc1N1CCN(C(=O)[C@H]2CN3CCC2C[C@@H]3Cn2cc(CCO)nn2)CC1 (some centres not stated),3%
COc1ccc(C(=O)NC[C@H]2C[C@@H]3CCN2C[C@@H]3c2cc(-c3ccc(N(C)C)cc3)nc(C)n2)cc1,-6%
CC[C@H]1CN2CC[C@H]1C[C@@H]2CNC(=S)Nc1ccc(C)cc1Br,-18%[70.6 µM]

# Reformatted as tab-separated lines: 19 of the compounds above
Compound	NPR1 antag
C=CCN(C)C[C@H]1CN2CC[C@H]1C[C@@H]2CNC(=O)Nc1cccc(C#N)c1	-2%[70.6 µM]
O[C@H]1[C@H](NCC2CCCC2)[C@@H](c2ccccc2)C[C@H]1O	-12%[70.6 µM]
COc1ccc(-c2cc([C@H]3CN4CC[C@H]3C[C@@H]4CO)n(C)n2)cc1	3%[70.6 µM]
O=C(NC1CC1)[C@H]1CN2CCC1C[C@@H]2Cn1cc(CCO)nn1 (some centres not stated)	-2%[70.6 µM]
N#Cc1cccc(NC(=O)NC[C@H]2C[C@@H]3CCN2C[C@@H]3CN2CCOCC2)c1	1%[70.6 µM]
COCC(=O)NC[C@H]1C[C@@H]2CCN1C[C@@H]2c1cc(-c2ccc3ccccc3c2)nn1C	-1%[70.6 µM]
O=C(NC1CC1)[C@H]1CN2CCC1C[C@@H]2Cn1cc(CSc2ccccc2)nn1 (some centres not stated)	-1%[70.6 µM]
O=C([C@H]1CN2CC[C@H]1C[C@@H]2Cn1cc(CO)nn1)N1CCOCC1	-1%[70.6 µM]
Cc1nc(-c2ccccc2)cc([C@H]2CN3CC[C@H]2C[C@@H]3CNC(=O)N2CCOCC2)n1	5%[70.6 µM]
COc1ccccc1N1CCN(C(=O)[C@H]2CN3CCC2C[C@@H]3Cn2cc(C(C)(C)O)nn2)CC1 (some centres not stated)	-5%
COc1ccc(-c2cc([C@H]3CN4CC[C@H]3C[C@@H]4CNS(=O)(=O)c3ccccc3)n(C)n2)cc1	-1%
O=C(NCc1ccco1)[C@H]1CN2CC[C@H]1C[C@@H]2Cn1cc(CCO)nn1	1%[70.6 µM]
O=C(c1ccncc1)N1C[C@@H]2C[C@H](C1)c1ccc(C3CCCCC3)c(=O)n1C2	1%[70.6 µM]
COCCOC1CCN(C(=O)c2nn(C)c3ccccc23)CC1	13%
C=CCN1CCC2(CCC1=O)CN(C(=O)Cc1cccnc1)CCN2C (configuration not stated)	2%
CN1CCN(C(=O)Cc2c[nH]c3ncc(-c4ccoc4)cc23)CC1	10%[70.6 µM]
COc1cc2c(cc1OCC1CC1)NC(=O)C21CCN(C(=O)c2ccnn2C)CC1	3%[70.6 µM]
CCOCCCNC(=O)N1[C@H]2CC[C@@H]1c1cnc(-c3ccc(F)cc3)nc1C2	?
O=C(Nc1ccc(=O)n2c1[C@@H]1C[C@@H](CN(S(=O)(=O)c3ccccc3)C1)C2)c1cncnc1	-19%

# Following part
SMILES,NPR1 antag
COc1cncc(CN2CCC3(CC2)C(=O)Nc2cc(OC4CCCC4)c(OC)cc23)c1,-4%[70.6 µM]
O=C1NCCOCCCN[C@H]2CCC[C@@H]12,-1%
CCC(CC)c1cc([C@H]2CN3CC[C@H]2C[C@@H]3CNS(=O)(=O)Cc2ccccc2)nc(-c2ccncc2)n1,?
CCOC(=O)CCNC(=O)N1[C@H]2CC[C@@H]1c1cnc(-c3ccccc3)nc1C2,6%
Cc1ncsc1CCC(=O)N1C[C@@H](c2ccccc2)[C@@H]2[C@H]1C1CCN2CC1,0%
c1cnc2nc(C3CCNCC3)[nH]c2c1,-1%[70.6 µM]
O=C1NCCN2CC3(CCNCC3)CC12 (configuration not stated),-2%
Cc1nc(-c2cccs2)cc([C@H]2CN3CC[C@H]2C[C@@H]3CNC(=O)CSCC(=O)O)n1,7%
C=CCN(C)C(=O)[C@H]1CN2CCC1C[C@@H]2Cn1cc(CSc2ccccc2)nn1 (some centres not stated),1%[70.6 µM]
COc1cccc(CC(=O)N2[C@H]3CC[C@@H]2c2cnc(C)nc2C3)c1,0%
CCOC(=O)N1CCN(C2CCCN(C(=O)Cc3ccc(C)c(C)c3)C2)CC1 (configuration not stated),5%
O=S(=O)(NC[C@H]1C[C@@H]2CCN1C[C@@H]2CN1CCN(c2ncccn2)CC1)c1ccccc1,5%
CC(=O)Nc1ccc(S(=O)(=O)NC[C@H]2C[C@@H]3CCN2C[C@@H]3c2cc(-c3ccco3)nc(C)n2)cc1,1%
CCC(CC)c1cc([C@H]2CN3CC[C@H]2C[C@@H]3CNS(=O)(=O)c2cccs2)nc(-c2ccncc2)n1,14µM*
